Screening results (PubChem BioAssay)
PV pol inh: inhibitors of poliovirus RNA polymerase binding and polymerization | P03300 | poliovirus polymerase elongation, fluorescence polarization; active compounds read low | % elongation, % (compound at 16.7 µg/mL) | actives 0.66% (n = 150,000) | AID 588519; in the data active means % elongation below about 90%; further: some results filed as inactive read as strong as hits
Target sequence (P03300 1749-2209 limits assumed): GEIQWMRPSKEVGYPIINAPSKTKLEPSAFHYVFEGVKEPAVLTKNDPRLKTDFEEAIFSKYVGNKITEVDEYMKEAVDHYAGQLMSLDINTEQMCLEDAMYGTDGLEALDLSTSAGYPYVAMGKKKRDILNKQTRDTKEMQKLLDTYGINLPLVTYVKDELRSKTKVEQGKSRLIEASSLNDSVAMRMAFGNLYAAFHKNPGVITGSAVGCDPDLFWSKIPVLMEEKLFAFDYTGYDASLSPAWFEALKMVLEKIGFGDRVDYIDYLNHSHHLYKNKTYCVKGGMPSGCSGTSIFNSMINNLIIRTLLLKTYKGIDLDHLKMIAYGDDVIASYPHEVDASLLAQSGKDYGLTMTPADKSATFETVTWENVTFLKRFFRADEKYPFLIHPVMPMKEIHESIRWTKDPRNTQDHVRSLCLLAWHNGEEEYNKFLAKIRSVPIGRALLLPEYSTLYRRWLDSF
PV pol inh intensity: also measured in PV pol inh; calls as there; % elongation; measured here: total intensity read-out; formula for this scale not given here;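 total fluorescence in place of polarization; lower means less elongation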
* marks the source's active call; other numbers are inactive results. These rows are one share of the data (hit frequency here may not be typical).

SMILES	PV pol inh	PV pol inh intensity
Oc1c(C(c2ccccc2)N2CCOCC2)sc2nc(-c3ccco3)nn12 (stereo not given)	102	102
COc1cccc(CNC(=O)c2cc(S(=O)(=O)N3CCCCCC3)cn2C)c1	99	104
COc1cccc(Cn2c(C)c(CNC3CCCCC3)c(C(=O)O)c2C)c1	104	102
Cc1cccc(C(=O)Nc2cc3c(cc2N2CCOCC2)n(C)c(=O)n3C)c1	98	98
O=C(c1ccc2c(c1)OCCO2)N(Cc1cccnc1)c1nc2ccc(Cl)cc2s1	108	106
COc1ccc(Nc2oc(-c3ccc(COc4ccc(OC)cc4)o3)nc2C#N)cc1	100	108
C=Cc1ccc(Cn2nc(-c3ccc(C)cc3)ccc2=O)cc1	106	111
Cc1nn2c3c(cnc2c1-c1ccc(Cl)cc1)C(=O)CC(c1ccc(C(C)C)cc1)C3 (stereo not given)	107	112
O=C(Nc1ccc2c(c1)N(C1CCCC1)C(=O)c1ccccc1S2)c1ccccc1	107	109
CCOC(=O)c1[nH]c(C)c(CCC(=O)NCc2ccc(C)cc2)c1C	104	113
CC(C)CCNC(=O)C(=O)Nc1c2c(nn1-c1ccc(Cl)cc1)CSC2	101	102
COc1cc(NC(=O)C2=CC(c3ccco3)=NS(=O)(=O)N2C)cc(OC)c1OC	114	112
Cc1ccc(-n2c3c(c(=O)[nH]c2=O)C(NS(=O)(=O)c2ccc(Cl)cc2)(C(F)(F)F)C(=O)N3)cc1 (stereo not given)	101	104
CCc1ccc(NC(=O)c2cc3ccccn3n2)cc1	98	104
CCn1c(C)c(C2N3CC4(C)CN2CC(C)(C3)C4=O)c2ccccc21 (stereo not given)	109	113
COc1ccccc1Cn1cc(C(=O)c2ccc(Cl)cc2)c(=O)c2ccccc21	110	108
CCCOC(=O)c1c(NC(=O)c2nc3ncccn3n2)sc(C(=O)OCC)c1C	102	106
CCc1cccc(OCC(=O)Nc2ccc(S(=O)(=O)Nc3cc(C)nc(C)n3)cc2)c1	103	104
Cn1c(=O)c2c(-c3ccccc3)n3c4ccccc4nc(-c4ccccc4)c3c2n(C)c1=O	109	109
CCOC(=O)c1cnc2cc(C(F)(F)F)ccc2c1N1CCN(c2cccc(Cl)c2)CC1	107	105
CC1CCc2c(sc(NC(=O)C3c4ccccc4Oc4ccccc43)c2C(=O)OC(C)C)C1 (stereo not given)	103	105
O=C(COCc1cc(-c2ccc3c(c2)OCO3)on1)N1CCN(c2ccccc2)CC1	103	106
Cc1cccc(Nc2nnc(-c3ccc(C)c(S(=O)(=O)NCC4CCCO4)c3)c3ccccc23)c1 (stereo not given)	110	113
COCCn1c(=O)[nH]c2cc(C(=O)NCc3ccccc3Cl)ccc2c1=O	107	109
CC1Cc2ccccc2N1S(=O)(=O)c1nnc(NC(=O)c2ccccc2Br)s1 (stereo not given)	121	116
CCOC(=O)N1CCN(Cc2nc3cc(NC(=O)CC)ccc3n2C(C)C)CC1	109	113
CCOC(=O)c1cc(-c2ccc(OC)c(S(=O)(=O)Nc3ccc(OC)cc3OC)c2)on1	106	101
Cc1ccc(N2CCN(C(=O)CCS(=O)(=O)c3cc4c(cc3Cl)NC(=O)CO4)CC2)c(C)c1	107	107
CCOc1ccc(-c2cc(OC(=O)c3ccc(F)cc3)c3c(C)oc(C)c3c(=O)c2)cc1	113	125
CCOc1ccc(NC(=O)C(C)Sc2nc3ncccc3o2)cc1 (stereo not given)	103	106
O=C(CSc1nc2c([nH]c3ccccc32)c(=O)n1-c1cccc(Cl)c1)c1ccccc1	107	116
CCCCn1c(NCc2ccc(OC)cc2O)nc2ccccc21	106	106
CCOc1cc(C(=O)Nc2nnc3n2CCS3)cc(OCC)c1OCC	108	113
CCCCOc1ccc(S(=O)(=O)n2nc(C)c(S(=O)(=O)N3CCC(C)CC3)c2C)cc1	110	101
Cc1ccc(OCC(=O)Nc2c(Cl)ccc3nsnc23)cc1C	102	113
CC1=C(c2ccc(C)cc2)S(=O)(=O)N=C1N1CCN(c2ccccc2)CC1	108	118
COc1cc2cc(CNc3ccc(C)cc3)c(=O)n(CC(=O)Nc3ccc(C(C)C)cc3)c2cc1OC	110	111
COc1ccc(OCc2nc3ccccc3n2C(C)c2ccccc2)cc1 (stereo not given)	107	108
COCCNC(=O)CSc1nc(-c2ccccc2)[nH]c1-c1ccc(OC)cc1	111	112
COC(=O)c1ccc(NC(=O)c2cccn(Cc3ccccc3C)c2=O)cc1	109	113
CCN(C(=O)c1cn(-c2ccc(OC)cc2)c(=O)c2ccccc12)c1cccc(Cl)c1	104	99
CCc1ccc(CNC(=O)c2cc3n(n2)CCCN(Cc2ccccc2)C3=O)cc1	113	107
COc1ccc(C(=O)c2sc3nc(-c4ccc(F)cc4)ccc3c2N)cc1	107	121
CN(C)c1ccc(CN2CCc3nc(N4CCN(c5ccccn5)CC4)ncc3C2)cc1	101	93
CCC(=O)N1CCc2cc(Br)cc(S(=O)(=O)CCC(=O)NCCc3ccc(OC)c(OC)c3)c21	109	104
CC(=O)N1CCCc2cc(S(=O)(=O)N3CCCC(C(=O)Nc4ccc(C)cc4C)C3)ccc21 (stereo not given)	111	112
Cc1ccc(S(=O)(=O)c2nc(-c3cccc(C)c3)oc2N2CCCCC2)cc1	101	106
CCc1ccc(S(=O)(=O)Nc2ccc3c(c2)sc(=O)n3C)cc1	109	107

Whole records as entered above. Order of screens: PV pol inh, PV pol inh intensity
CCC(=O)N1CCc2cc(Br)cc(S(=O)(=O)CCC(=O)NCCc3ccc(OC)c(OC)c3)c21 is listed as 109, 104
CN(C)c1ccc(CN2CCc3nc(N4CCN(c5ccccn5)CC4)ncc3C2)cc1 is listed as 101, 93
CC(=O)N1CCCc2cc(S(=O)(=O)N3CCCC(C(=O)Nc4ccc(C)cc4C)C3)ccc21 (stereo not given) is listed as 111, 112
Cc1ccc(S(=O)(=O)c2nc(-c3cccc(C)c3)oc2N2CCCCC2)cc1 is listed as 101, 106
CCc1ccc(CNC(=O)c2cc3n(n2)CCCN(Cc2ccccc2)C3=O)cc1 is listed as 113, 107

(next part)
SMILES	PV pol inh	PV pol inh intensity
O=C(CN1c2ccccc2S(=O)(=O)c2ccccc21)Nc1ccccc1Cl	105	115
COc1ccc(N2CC(NC(=O)CCCc3ccccc3)CC2=O)cc1 (stereo not given)	114	107
Cc1ccc(C)c(NC(=O)C(=O)NCCCN2CCOCC2)c1	109	109
CCCOc1ccc(-c2nn(-c3ccccc3)cc2C2NC(=O)NC(C)=C2C(=O)OC)cc1C (stereo not given)	108	108
CCc1ccc(CN2CCc3nc(Nc4ccc5c(c4)OCCO5)ncc3C2)cc1	106	110
C=CCC(CC=C)(CNC(=O)C(=O)Nc1ccc(C(=O)OCC)cc1)c1ccccc1	108	110
Cc1cccc(CC(=O)Nc2cccc(-c3cn4cccnc4n3)c2)c1	107	106
Brc1ccccc1-n1ncc2c1ncn1nc(Cc3ccccc3)nc21	83	86
CCCCN(C)CC(O)Cn1cc(/C=C/C(=O)c2ccc(Br)cc2)c2ccccc21 (stereo not given)	122	130
CCC1CN(C(=O)N2CCC(C(=O)Nc3cc(C)ccc3C)CC2)c2ccccc2O1 (stereo not given)	104	95
COc1ccc(-c2cn3nc(N4CCCC(C(=O)Nc5cccc(OC)c5)C4)sc3n2)cc1 (stereo not given)	105	108
CCN(c1cccc(C)c1)S(=O)(=O)c1nnc(NC(=O)C2CCCCC2)s1	111	114
Cc1cccc2c1-c1sc(C(=O)N3CCN(c4ccc(F)cc4)CC3)cc1CO2	105	110
CCc1cccc(C)c1NC(=O)C(CC)n1nc(C)c2c(C)n(-c3ccccc3)nc2c1=O (stereo not given)	108	111
COc1ccc(C(CC(=O)Nc2ccc(C(C)=O)cc2)N2Cc3ccccc3C2=O)cc1 (stereo not given)	108	114
COc1cccc(Cn2nnc3c(=O)[nH]c(C4CCCN(C(=O)c5ccccc5Cl)C4)nc32)c1 (stereo not given)	84	128
COc1ccc(-c2cc(NCc3ccc(C)cc3)n3cnnc3n2)cc1	108	105
Cc1ccccc1C(=O)Nc1ccc2nc(Nc3cccc(C(F)(F)F)c3)cc(C)c2c1	101	105
COc1ccc2c(CNCc3cccs3)c(C(=O)O)n(Cc3ccc(F)cc3Cl)c2c1	104	99
COc1ccccc1CNc1nc(-c2ccco2)nn1C(=O)c1ccccc1[N+](=O)[O-]	106	100
CCCCNC(=O)c1nn(C)c2c1CSc1ccccc1-2	113	109
COc1ccc(C(=O)Nc2nonc2-c2ccc(OC)c(OC)c2)cc1Cl	106	110
CCOc1ccc(OCC)c(NC(=O)CCc2nc3cccnc3n2-c2ccccc2)c1	109	112
COc1ccc(S(=O)(=O)N2CCN(c3ccc(Cl)c(Cl)c3)CC2)c2ccccc12	101	103

Molecules from the list above that have an aryl thioether with sulfur outside any ring (3):
SMILES	PV pol inh	PV pol inh intensity
CCOc1ccc(NC(=O)C(C)Sc2nc3ncccc3o2)cc1 (stereo not given)	103	106
O=C(CSc1nc2c([nH]c3ccccc32)c(=O)n1-c1cccc(Cl)c1)c1ccccc1	107	116
COCCNC(=O)CSc1nc(-c2ccccc2)[nH]c1-c1ccc(OC)cc1	111	112

Taken from the listing for reference:
SMILES	PV pol inh	PV pol inh intensity
COc1ccc2c(CNCc3cccs3)c(C(=O)O)n(Cc3ccc(F)cc3Cl)c2c1	104	99
COc1ccccc1CNc1nc(-c2ccco2)nn1C(=O)c1ccccc1[N+](=O)[O-]	106	100
CCCCNC(=O)c1nn(C)c2c1CSc1ccccc1-2	113	109
COc1ccc(C(=O)Nc2nonc2-c2ccc(OC)c(OC)c2)cc1Cl	106	110
CCOc1ccc(OCC)c(NC(=O)CCc2nc3cccnc3n2-c2ccccc2)c1	109	112

Further structures:
SMILES	PV pol inh	PV pol inh intensity
COc1ccc(C2c3c(n(C)c4ccccc34)C(=O)N2CC(=O)Nc2c(C)cc(C)cc2C)cc1 (stereo not given)	106	104
COc1ccc(C(=O)NCCc2csc(-c3ccc(Cl)cc3)n2)c(OC)c1	108	114
CCOC(=O)c1cc(S(=O)(=O)N2CCN(c3cc(Cl)ccc3C)CC2)[nH]n1	101	98
CCCn1ccc2c(OCC(=O)NCc3ccc(C)cc3)cccc2c1=O	105	114
Cc1cc(NC(=O)c2cccn(Cc3cccc([N+](=O)[O-])c3)c2=O)no1	101	101
Cc1cccc(CN2C(=O)c3ccccc3Sc3ccc(C(=O)NCCc4ccccc4)cc32)c1	107	112
COc1ccccc1CCNC(=O)C(=O)NCC(c1ccco1)S(=O)(=O)c1ccc(F)cc1 (stereo not given)	110	107
O=C(CSc1nccn1Cc1ccc(Cl)cc1)Nc1ccc2c(c1)OCCO2	109	112
CCCCOc1ccc(CNC(=O)c2ccc3c(c2)N(C)C(=O)C2CCCCN32)cc1 (stereo not given)	103	108
Cc1cc(=O)n2c(C(=O)Nc3ccc(Br)cc3)c(C(=O)Nc3ccccc3)sc2n1	108	110
CCNc1nc(NC(C)CC)nc(Oc2ccc(OCC)nn2)n1 (stereo not given)	103	99
COc1ccc(Cn2c(SCC(=O)NCc3ccccc3)nc3ccccc32)cc1	99	96
O=C(NCc1ccccn1)c1nn(-c2ccccc2F)nc1CO	104	111
CCOc1ccc(-c2nnc(SCC(=O)Oc3ccccc3)o2)cc1	97	98
COc1ccc(CCNC(=O)c2cc(-c3ccc(Cl)cc3)on2)cc1OC	102	108
CCOc1ccc(NC(=O)CCc2nc3cccnc3n2-c2ccccc2)cc1	109	113
